# Screening data from PubChem.
# AID504770 = E. coli YBA685 growth inhibition, screen for V. cholerae RctB inhibitors. 130,000 compounds, 0.27% hits. z-score (no concentration beside the values). E. coli YBA685 rctB-dependent plasmid, OD600 growth, 3 h; stronger effect = lower value;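 active means z-score under -2 on both plates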;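 further: wells of about 30 µL received 100 nL stock; score is relative to mean and SD of the test wells; the first replicate is given; strong numbers were not always called active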
# CapD inh = CapD enzyme inhibition; purified CapD enzyme, fluorescence intensity read-out; stronger effect = lower value; some hits fall short of the stated cut; z-score (concentration not given with the values); 140,000 compounds, 0.23% hits;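 active means z-score under -4 in either of two replicates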;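 further: stock transfer was 100 nL into about 40 µL; score is relative to mean and spread of the plate; one replicate is shown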
# Starred values were filed as active, the others as inactive; · = no result given; & = joins results of further samples.
SMILES,AID504770,CapD inh
CCCCC(NC(=O)c1ccc2c(c1)OCCO2)C(=O)O (stereo not given),·,-0.08
CSc1nc2c(sc3ccccc32)c(=O)n1-c1ccc(C)cc1,0.05,0.8
Cc1ccccc1-n1nc2c(c1NC(=O)C(C)C)CSC2,-0.05,·
O=C(NCN1CCN(c2ccccc2F)CC1)c1ccccc1,-0.8,0.3
CN(C)CCN1CCN(S(=O)(=O)c2ccccc2Cl)CC1,·,-0.53
c1ccc2cc(CN3CCN(c4cccc5[nH]ccc45)CC3)ccc2c1,0.15,-0.62
CCOC(=O)c1c(NC(=O)c2cccc(Cl)c2)sc(C(=O)Nc2cccc(Cl)c2C)c1C,·,0.14
COc1ccc(-c2nc(-c3ccncc3)ncc2N=Nc2ccc(F)cc2)cc1,·,0.29
C=CCOC(=O)c1c(N)oc2c(-c3ccccc3)c3c(C(=O)OCC=C)c(N)oc3cc12,-0.55,0.26
CCOC(=O)c1sc2nc(CC(=O)OC)nc(NCC3CCCN3CC)c2c1C (stereo not given),·,42
CC(=O)N1c2ccccc2C=Cc2ccccc21,0.65,1.1
CCC(=O)Oc1ccc(C=C2C(=O)NC(=O)NC2=O)cc1OC,-0.05,0.52
Cc1c(C(=O)O)sc2ncnc(N3CCN(c4ccccc4)CC3)c12,·,-0.1
COc1ccc2c(CCNC(=O)Nc3ccccc3)c[nH]c2c1,-0.3,-1.2
O=C(c1cccs1)C(O)c1c[nH]c2ccccc12 (stereo not given),-0.5,·
O=C(N/N=C/c1ccccc1OCc1cnc(Cl)s1)c1cccnc1,·,-0.81
Cc1ccc(/C=C2\Sc3ccccc3C2=O)c(O)c1,1.4,-0.62
O=C(O)c1cccc(NCc2ccc3c(c2)OCO3)c1,-0.9,68
Cc1cc(C)c2c(c1)c1nc3ccccc3nc1n2CC(=O)O,-0.8,·
CCCCCCOc1ccc(S(C)(=O)=O)cc1NC(=O)c1ccccc1,·,-0.08
O=C(Cc1ncc(C(F)(F)F)cc1Cl)NCc1cccc(C(F)(F)F)c1,·,-0.095
O=C(c1cc(C(F)(F)F)cc(C(F)(F)F)c1)N1CCc2cc([N+](=O)[O-])ccc21,·,-0.33
O=C(c1cccs1)N1CCN(c2cccc3[nH]ccc23)CC1,0.75,1
CCOC(=O)c1oc2ccccc2c1COC(=O)CSc1nc(C)cc(C)n1,-0.4,·
Cc1ccc(C2CC(c3ccccc3)=Nc3ccccc3S2)cc1 (stereo not given),1.5,-1.7
CC(=O)NC(=O)c1cc2cc(Br)ccc2oc1=Nc1cccc(C(F)(F)F)c1,·,0.71
O=C(c1ccc2c(c1)C(=O)c1ccccc1-2)c1ccccc1Br,-0.55,-0.25
COC(=O)c1c(-n2cccc2)sc2c1CCN(C(C)=O)C2,-0.65,-0.26
CC(Oc1ccc(Cl)cc1Cl)C(=O)N1CCN(C(=O)c2ccco2)CC1 (stereo not given),0.05,·
O=C(CCCN1C(=O)c2ccccc2C1=O)Oc1ccccc1,-0.65,·
COc1ccc(N2CCN(C(=O)c3sc4ncn(CC(=O)Nc5ccc(C)c(Cl)c5)c(=O)c4c3C)CC2)cc1,·,0.35
CC(C)C(=O)Nc1ccc2nc(SCc3cc(=O)n4nc(C(C)C)sc4n3)sc2c1,1.3,-0.035
COc1ccc2nc(-c3cccc(N)c3)[nH]c2c1,-0.1,74
COc1ccc(C2C(C(=O)O)c3ccccc3C(=O)N2CC2CC2)cc1 (stereo not given),·,-0.21
CC1=C(C(=O)OCCOc2ccccc2)C(c2coc3ccc(C)cc3c2=O)C2=C(CC(C)(C)CC2=O)N1 (stereo not given),·,0.06
Cc1nn(-c2ccccc2)nc1C(=O)N1CCCc2ccccc21,-0.45,-0.86
CN(C1CC2C=CC1C2)S(=O)(=O)c1cc(Cl)sc1Cl (stereo not given),-0.6,-1.3
Cc1ccc(Nc2nc(N)nc(COC(=O)c3ccccc3NS(C)(=O)=O)n2)cc1,0.55,·
COC(=O)c1cccc(C(=O)OC)c1Cl,-0.5,-0.005
C=CCn1c(=N)n(CC(=O)O)c2ccccc21,-0.7,-0.04
COc1ccc(-n2c(=S)[nH]c3cc(C(=O)NCc4ccco4)ccc3c2=O)cc1,1.9,0.73
Nc1nc2ccccc2n2nnnc12,1.1,·
Oc1ccccc1C=Nc1ccc(-c2nc3ccccc3s2)cc1,-0.85,2.2
O=S(=O)(c1cccc(F)c1)N1CCN(c2cc(C(F)(F)F)ccn2)CC1,·,83
N#CCCn1cnc2ccccc21,-0.45,0.09
CO/N=C(/C)c1ccc2c(c1)CCO2,-0.45,-0.71
Cc1ccccc1C(=O)OCc1cnc(Cl)s1,-0.85,0.31
CC(C)NC(=O)/C=C/c1ccc2c(c1)OCO2,-0.65,·
CCCc1c(C(=O)NCc2ccc3c(c2)OCO3)cnn1-c1ccccc1,-0.35,0.44
CCOC(=O)CNc1ccc(C(F)(F)F)cc1,·,-0.88
Cn1c(CC(=O)Nc2ccccc2F)nnc1SCC(=O)N1CCOCC1,2.5,-1
CCOC(=O)c1cc2c(c(CSc3nc4ccccc4c(=O)n3NC(=O)c3cccs3)c1)OCOC2,·,0.065
Oc1ccc(C2Nc3cccc4cccc(c34)N2)c(O)c1,·,34
CCOC(=O)c1c(-c2ccc(OC)cc2)csc1NC(=O)CNCc1ccco1,-0.8,1.2
O=C(OC1CCCC1=O)c1cc(-c2ccco2)nc2ccccc12 (stereo not given),-0.35,·
CCN(C(=S)NCc1ccccc1)C1CCCCC1,-0.7,-0.2
CCOCCOC(=O)C(C)Oc1ccc2c(=O)c(Oc3ccc(OC)cc3)c(C(F)(F)F)oc2c1 (stereo not given),·,-0.89
CCn1c(CSc2nc3ccccc3n2CCOC)nc2cc(S(=O)(=O)N(C)C)ccc21,-0.35,·
COCc1cc(C)c(C#N)c(SCC(=O)C23CC4CC(CC(C4)C2)C3)n1,·,-0.53
O=C(Nc1ccccc1C(=O)NCCN1CCOCC1)c1cccs1,-1.3,·
# Next entries follow.
SMILES,AID504770,CapD inh
Nc1ccc(OCc2ccc3ccccc3n2)cc1,-0.95,-0.48
COc1cc2c(cc1OC)C(c1ccccc1N)=NCC2,-1.1,2.3
Cc1cc(C)nc(NCCCO)n1,-0.45,6.9
Cc1ccn2c(NC(=O)CN3CSCC3=O)c(-c3ccccc3)nc2c1,-0.35,·
NC(=O)C1CCN(C(=O)CCSc2ccc(Cl)cc2)CC1,1.3,·
O=C(Cc1ccccc1)NC1CCN(C(=O)C2CCC2)CC1,0.9,0.025
CC1(C)Cc2cccc(Oc3nnnn3-c3ccccc3)c2O1,-0.05,·
CN(Cc1ccccc1)C(=O)Cn1ncn2nc(-c3cccs3)cc2c1=O,0.5,1.5
CC1=NN(c2nnc(C)c(=O)[nH]2)C(=O)/C1=C\c1ccc(N(C)C)cc1,-0.35,-0.18
O=C1NC(=S)S/C1=C/c1ccccc1C(=O)O,·,-2.5
c1cc(-c2ccc3c(c2)OCO3)[nH]n1,-0.6,-0.12
Cc1cc(N2CCN(c3ccccn3)CC2)nc2c(C)cccc12,2.3,·
CCOC(=O)c1c(C)oc2ncnc(Nc3ccccc3)c12,0.55,-0.29
COc1ccc(Br)cc1CNC(=O)CS(=O)(=O)Cc1nc(-c2ccc(C)cc2)oc1C,0.5,0.45
COC(=O)C1CN(C(=O)Cc2coc3cc4c(cc23)CCC4)c2ccccc2O1 (stereo not given),-1.1,·
CCCc1cc(=O)oc2cc(OCC(=O)OCC)ccc12,·,27
O=C(c1cccs1)C1CN2CCC1CC2 (stereo not given),0.7,-0.03
CC(C)C(=O)Nc1ccc(-c2cn3cccnc3n2)cc1,-0.1,112
O=C(N/C(=C/c1ccc2c(c1)OCO2)C(=O)N1CCOCC1)c1ccc(Br)cc1,-0.65,-0.32
COc1ccc(-c2noc(CC(=O)N3CCc4ccccc43)n2)cc1,-0.35,-0.23
CCN(CC)c1c([N+](=O)[O-])c(=O)n(C)c2ccccc12,·,-0.22
Cn1c(NCc2c[nH]c3ccccc23)nc2ccccc21,-0.25,-0.09
CCOC(=O)C1CCCN(C(=O)COc2cccc(Br)c2)C1 (stereo not given),0.4,0.1
CCOC(=O)c1ccccc1NC(=O)c1ccc(F)cc1,0.85,0.14
CCc1nc2c(c3c1[nH]c1ccccc13)C(=O)CC(C)(C)C2,·,11
C1CCN(C2=NCCS2)CC1,-0.55,0.6
COC(=O)c1cc(OCC(F)(F)F)ccc1OCC(F)(F)F,·,2.1
O=C(Nc1ccc2c(c1)OCCO2)C1(c2ccccc2)CCOCC1,-0.45,-0.62
Cc1ccnc(NC(=O)c2ccccc2NC(=O)c2ccccc2)c1,-1.1,0.53
Cc1ccc(C(=O)NCCc2cc3cc(C)c(C)cc3[nH]c2=O)cc1,-0.05,0.4
O=C(Nc1nc(=O)n(C(=O)c2cccc(C(F)(F)F)c2)s1)c1ccccc1,·,-0.79
C=CCN1CC2(c3ccccc3)CN(CC=C)CC(c3ccccc3)(C1)C2=O,-0.95,0.35
Cc1ccc(-c2cc(C(=O)N3CCCCC3C)[nH]n2)cc1C (stereo not given),0.55,-1.3
C=CCn1c(C)cc(C(=O)CN2NS(=O)(=O)c3ccccc3C2=O)c1C,0.15,·
CC(C)c1ccc2[nH]c3c(c2c1)CCC/C3=N\O,-0.6,-1
CCN(CC)CC(O)COc1ccc(OC)cc1 (stereo not given),-0.25,-0.34
O=C(O)c1cccc2c1C(=O)c1ccccc1-2,·,-0.32
Cc1cc(Nc2ccc(N(C)C)cc2)n2c(nc3ccccc32)c1C#N,2.4,·
Cc1nc(N)sc1N=Nc1ccccc1C(F)(F)F,-0.15,·
Cc1c(Cc2ccccc2)c(=O)oc2cc(OCc3ccc(C(=O)O)cc3)ccc12,0.15,0.065
CCCCCC(=O)Nc1ccc(C(=O)COC(=O)c2cnc(C)cn2)cc1,1.6,·
CC1CCN(C(c2ccccc2)c2ccc3cccnc3c2O)CC1 (stereo not given),-0.75,-1.5
CCn1cc(CCC(=O)NCc2ccco2)c2ccccc21,-0.45,1.1
COc1cc(C(F)(F)F)cc(C(F)(F)F)c1C(=O)O,·,-0.85
CC1CCCC(NC(=O)Cn2cnc3onc(-c4ccc(Cl)cc4)c3c2=O)C1C (stereo not given),-1.1,0.26
ON=C1/C(=N\O)CC2(C/C1=N/O)OCCO2,-0.6,0.46
O=C(Nc1ccccc1Cl)c1cc2ccccc2cc1O,1,-0.005
FC(F)(F)c1cc(-c2cccs2)nc2cc(C3CC3)nn12,-0.4,0.11
Cc1c(/C=N/N=C2/C(=O)N(Cc3ccccc3)c3ccccc32)cc(C#N)n1C,-0.55,·
CCN(Cc1ccccc1)Cc1nnc(-c2ccccc2)o1,-0.3,0.23
CC(C)NC(=S)Nc1ccc2cn[nH]c2c1,0.05,·
CCOC(=O)C1(C)C=C(Nc2cccc(C(F)(F)F)c2)C(=O)N1c1ccccc1 (stereo not given),·,6.1
CN(Cc1ccccc1)C1CCN(Cc2cccnc2)CC1,-0.8,-0.54
CC(C)N(C=O)C1(C(=O)NC2CCCCC2)CCCCC1,-0.2,·
O=C1CC(=O)N(c2ccccc2)C(=S)N1c1ccccc1,·,-0.22
Nc1n[nH]c(=S)n1Cc1ccccc1,0.8,·
CC(C)(C)NC(=S)NCc1ccccc1,-0.25,0.1
CC1CCCC(C)N1NC(=S)NC1CCCCC1 (stereo not given),1.4,-0.29
CC(C)N1CC23C=CC(O2)C(C(=O)O)C3C1=O (stereo not given),0.05,3.3
Cc1ccc(-c2ccc(C)cc2[N+](=O)[O-])c([N+](=O)[O-])c1,·,-1.1
# Next section:
SMILES,AID504770,CapD inh
N#Cc1cc2c(nc1SCC(=O)Nc1ccc(S(=O)(=O)Nc3nccs3)cc1)CCCC2,1.2,0.025
CCOC(=O)Cc1nn2c(=O)cc(C)nc2s1,-0.35,·
C[N+]1(C)CCCC(OC(=O)C(O)(c2ccccc2)c2ccccc2)C1 (stereo not given),-1.3,-0.49&0.48
Cc1cc2c(cc1S(=O)(=O)N1CCN(C3CCCCC3)CC1)n(C)c(=O)c(=O)n2C,-1.1,6
Clc1ccc(CSc2nnc(/C=C/c3ccccc3)o2)c(Cl)c1,·,0.36
CSc1ncnc2sc(C)cc12,-0.65,-0.01
CC1(C)CC(C)(c2ccccc2)c2cc(SC#N)ccc2N1 (stereo not given),0.15,-0.46
CCOC(=O)c1ncoc1-c1ccco1,-0.8,59
COc1ccc(NC(=O)c2cccnc2Cl)cc1,0,-0.43
CC(=O)Nc1c(C(=O)O)[nH]c2ccc(F)cc12,·,7.3
O=C1c2ccccc2NC(c2ccccc2)N1N=C1CCCCCC1 (stereo not given),0.05,0.39
